VDR inh: inhibitors of human vitamin D receptor | P11473 | VDR-SRC2-3 peptide fluorescence polarization, 2 h | Potency, µM, for inactives: max response, negative = inhibition, hits mostly inhibitors | 0.93% of 400,000 active | AID 504847; active = well fitted inhibition curve with a large enough effect; inconclusive = small, poorly fitted or top-dose-only effect, or another doubt; inactive = no such curve, though single readings can be large or run the other way; note: series mostly up to about 120 µM
Target sequence (P11473 whole entry, looked up): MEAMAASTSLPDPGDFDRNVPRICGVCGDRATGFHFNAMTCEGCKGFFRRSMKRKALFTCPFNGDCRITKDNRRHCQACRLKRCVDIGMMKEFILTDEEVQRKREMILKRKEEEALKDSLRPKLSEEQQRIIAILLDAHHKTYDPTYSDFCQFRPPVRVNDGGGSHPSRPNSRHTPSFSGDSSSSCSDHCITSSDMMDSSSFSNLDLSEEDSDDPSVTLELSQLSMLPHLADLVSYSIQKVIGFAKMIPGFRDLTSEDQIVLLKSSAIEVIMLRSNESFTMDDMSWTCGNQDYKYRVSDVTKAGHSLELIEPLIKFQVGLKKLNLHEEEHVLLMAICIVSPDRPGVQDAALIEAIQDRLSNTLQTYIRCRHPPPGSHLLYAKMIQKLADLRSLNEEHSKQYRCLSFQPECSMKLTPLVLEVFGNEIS
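Reagent solutions, kept cold and dark, are dispensed first; compounds are then pinned in at 23 nl, plates briefly spun, and incubated 2 h at ambient temperature. Inhibition of VDR–SRC2-3 peptide binding is read by fluorescence polarization.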
Numbers without * were called inactive; u = inconclusive; & = joins results of further samples; [ ] = another dose, or the depositor's remark. % is set by controls: 0 for no effect and ±100 for the full control effect; potency is the fitted concentration of half-maximal effect.

SMILES	VDR inh
CCc1cc(=O)oc2cc(OC(C)C(=O)NCc3ccccn3)ccc12 (centres undefined)	-25.2%
O=C(COC(=O)c1ccccc1NCc1ccco1)Nc1ccc2c(c1)OCO2	3.4%
CO/S(=N\S(=O)(=O)c1ccc(Cl)cc1)c1ccc([N+](=O)[O-])cc1 (centres undefined)	u
COc1cccc(/C=C2\Oc3cc(OCC(=O)N4CCC[C@H]4C(=O)O)ccc3C2=O)c1	-18.2%
CC(/C=C/c1ccco1)=N/NC(=O)c1ccc(C)nc1	5.9%
CCOc1c(CNc2nnnn2C)cccc1OC	-3.4%
CCc1csc(CCNC(=O)C2CCC(=O)N(CCc3cccc(F)c3)C2)n1 (centres undefined)	-8.3%
Cc1cccc(N2CCN(CC(O)COc3ccc4ccccc4c3)CC2)c1 (centres undefined)	-19.9%
Cc1ccc(C(=O)OCC(=O)NCCN2C(=O)CSC2=O)cc1[N+](=O)[O-]	16.2%
Cc1cccc(S(=O)(=O)c2c(N)n(/N=C/c3cccnc3)c3nc4ccccc4nc23)c1	-9.7%
CCn1c2ccccc2c2cc(CN3CCN(Cc4ccc(OC)c(OC)c4)CC3)ccc21	6.9%
CN(C)C(=O)c1cc(C(=O)Cc2ccccc2)c[nH]1	-7.6%
CCc1ccc(-c2nn(CC(=O)NC3CCCCC3)c3c2cnc2ccc(C)cc23)cc1	6.2%
O=C(NC12CC3CC(CC(C3)C1)C2)c1cccnc1	-3.6%
Cc1cc(C)n(C(=O)CNc2ccccc2Cl)n1	7.5%
CCN(CC(=O)Nc1ccc(NC(C)=O)cc1)C(=O)/C=C/c1cn(Cc2ccccc2)nc1-c1cccnc1	7.8%
Cc1cc(C(=O)CN2C(=O)C(=O)N(CC(C)C)C2=O)c(C)n1C1CC1	-14.7%
COc1ccccc1OCC(=O)Nc1sc2c(c1C(=O)NCC1CCCO1)CCC2 (centres undefined)	-2.5%
O=C(NNC1=NS(=O)(=O)c2ccccc21)c1ccccc1Cl	-14.6%
CC(C)CCNC(=O)c1ccc2c(Cl)c3c(nc2c1)CCC3	-3.1%
COCCNC(=O)C1c2cc(OC)c(OC)cc2C(=O)N(C)C1c1cccnc1 (centres undefined)	7.8%
CC(=O)OCOC(=O)CNc1ccccc1OCCOc1ccccc1NCC(=O)OCOC(C)=O	-0.3%
O=C(NCc1ccncc1)c1ccccc1Nc1ccc(SC(F)F)cc1	12.6%
COc1ccccc1NS(=O)(=O)c1cccc(NC(=O)C2CC(=O)N(Cc3ccccc3)C2)c1 (centres undefined)	0.3%
CC(C)(C)NS(=O)(=O)NC(=O)C1=C(N2CCCC2)COC1=O	-13.5%
Cc1cccc(/C=N/NC(=O)CNc2cccc3ccccc23)n1	-5.2%
CC(C)C[C@@H](C(=O)O)N(Cc1cccc(CN([C@@H](CC(C)C)C(=O)O)S(C)(=O)=O)c1)S(C)(=O)=O	1.1%
Cc1cccc(NC(=S)NC(NC(=O)c2ccco2)C(Cl)(Cl)Cl)c1 (centres undefined)	-11.1%
O=C(c1cc([N+](=O)[O-])ccc1N1CCCCC1)N1CCCCC1	u
COc1ccc(C2C(C#N)=C(N)OC3=C2C(=O)CC(C)(C)C3)cc1OC (centres undefined)	5.0%
O=C1CC(c2cccc(Cl)c2)Cc2nc(N3CCN(c4ccccc4)CC3)ncc21 (centres undefined)	-5.7%
COc1ccccc1NC(=O)c1oc2ccccc2c1NC(=O)c1cc(OC)c(OC)c(OC)c1	-4.3%
CCCn1c(N)c(N(CCOC)C(=O)c2ccc([N+](=O)[O-])c(C)c2)c(=O)[nH]c1=O	-1.2%
Cc1nn(C)c(Cl)c1/C=N/OC(=O)c1ccccc1	-2.6%
Cc1ccc(Cl)cc1NC(=O)Cn1c(=O)oc2cc(S(=O)(=O)N3CCCCCC3)ccc21	10.3%
CCN1CCN(c2ccc(NC(=O)c3ccc(C#N)cc3F)cc2Cl)CC1	-5.0%
Cc1nccc2[nH]c(=O)c(C(=O)NC3CCCCC3C)cc12 (centres undefined)	-3.0%
Cc1nc2cc(C(=O)OCC(=O)N(CC(C)C)C3CCS(=O)(=O)C3)ccc2n1-c1ccccc1 (centres undefined)	12.3%
CCn1c(SC)nnc1-c1c[nH]c2ccccc12	-6.7%
CCOc1cc(C(=S)N2CCOCC2)ccc1OC(=O)/C=C/c1ccc(OC)c(OC)c1	-10.0%
COc1ccc(/C=C/C(=O)NC(=S)Nc2ccc(N3CCN(C(C)=O)CC3)cc2)cc1	-20.5%
O=C(c1cc(Cl)c(=O)n(Cc2ccc(Cl)cc2)c1)N1CCOCC1	-8.3%
Cc1ccc(CN2C(=O)[C@H]3Cc4c([nH]c5ccccc45)C(C)(C)N3C2=O)cc1	-4.9%
Cc1c(Br)c([N+](=O)[O-])nn1CC(=O)NCCc1c[nH]c2ccccc12	-6.4%
C=CCOc1ccccc1CN1CCC(Oc2cc(C(=O)NC3CC3)ccc2OC)CC1	-1.3%
N#CC(C(=O)c1ccco1)c1ccccn1 (centres undefined)	3.2%
Cc1ccc(S(=O)(=O)N2CCOCC2)cc1C(=O)OCC(=O)NC1CCS(=O)(=O)C1 (centres undefined)	-6.0%
CCN(CC(=O)NCc1ccc(Cl)cc1)C(=O)c1ccc(S(=O)(=O)NCc2ccco2)cc1	1.6%
COc1cc(/C=N/NC(=O)c2ccc(Cl)c(S(N)(=O)=O)c2)ccc1OCC(N)=O	-2.8%
CCOc1ccc(NC(=O)N2CCC(c3nc4ccccc4[nH]3)CC2)cc1	-0.6%

Next section:
SMILES	VDR inh
CCCC(=O)Nc1ccc(NC(=O)c2ccco2)c(OC)c1	7.6%
CCOc1ccc2oc(C(=O)OC(C(=O)NC(N)=O)C(C)C)c(C)c2c1 (centres undefined)	18.6%
O=C(CCCOc1ccccc1)NCCc1ccccc1	-1.3%
Cc1ccc(NC(=O)C(=O)NNC(=O)c2ccccc2C)cc1Cl	2.9%
CCc1ccc(NC(=O)CCn2c(=O)c3cccn3c3ccccc32)cc1	27.9%&1.9%
CCOc1ccc(CCNC(=O)c2nnn(CC(=O)Nc3ccccc3C)c2N)cc1OCC	7.8%
COc1ccc(N2CC(C(=O)N3CCC4(CC3)CC(=O)c3ccccc3O4)CC2=O)cc1 (centres undefined)	-4.3%
Cc1ccc(S(=O)(=O)NCCn2cnc([N+](=O)[O-])n2)cc1	-12.1%
Cc1ccc(C)c(NC(=O)CN(C)C(C)C(=O)N2CC(C)CC(C)C2)c1 (centres undefined)	12.4%
O=S(=O)(Nc1ccc(S(=O)(=O)Nc2nccs2)cc1)c1ccc(Br)cc1	6.8%
COC(=O)/C(=C/Nc1ccccc1)[N+](=O)[O-]	2.0%
Cc1ccc2c(c1)c1c3n2CCN(C(=O)c2cccc(C(F)(F)F)c2)C3CCC1 (centres undefined)	-3.4%
CCCCCCOC(=O)C[N+](C)(C)CCOC1CC2CCC1(C)C2(C)C (centres undefined)	6.9%
CCOC(=O)c1cc(-c2cc3ccccc3o2)nc2c1c(=O)[nH]c(=O)n2CCOC	-1.6%
CCc1ccc(OC(=O)/C=C/c2ccco2)cc1	-19.5%
O=[N+]([O-])c1cc(S(=O)(=O)N2CCCC2)ccc1NCCc1ccccc1	-18.2%
Cc1ccc(N2CC(NC(=O)C3CCCC3)CC2=O)cc1C (centres undefined)	12.3%
CCCNC(=O)Cn1cnc2sc(C(=O)NCCN(CC)CC)c(C)c2c1=O	3.3%
COc1ccc(CC(=O)Nc2nc3c(s2)CC(C)CC3)cc1 (centres undefined)	5.6%
C#CCOCCOCCOCCNc1nc(N2CCN(C(=O)[C@H](CCCN=C(N)N)n3cc(C(N)[C@@H](C)CC)nn3)CC2)nc(N2CCN(C(=O)[C@H](CCCCN)n3cc([C@@H](N)[C@H](C)CC)nn3)CC2)n1 (some centres undefined)	-8.2%
COC(=O)c1ccc(S(N)(=O)=O)o1	0.1%
COc1ccc(N(CC(=O)N/N=C/c2ccccc2F)S(=O)(=O)c2ccccc2)cc1	0.5%
CCN(CC)C(=O)Cn1c(=O)n(-c2ccc(C)c(C)c2)c(=O)c2c3c(sc21)CCCCC3	-16.2%
CCOC(=O)NC1(NCc2ccccc2)Oc2ccccc2O1	13.6%
O=C(c1ccc2c(c1)N(Cc1cccc(Cl)c1)C(=O)c1ccccc1S2(=O)=O)N1CCCCC1	-2.0%

Ordered by length of the SMILES (falling): 7 of the compounds above
SMILES	VDR inh
O=C(c1ccc2c(c1)N(Cc1cccc(Cl)c1)C(=O)c1ccccc1S2(=O)=O)N1CCCCC1	-2.0%
COc1ccc(N2CC(C(=O)N3CCC4(CC3)CC(=O)c3ccccc3O4)CC2=O)cc1 (centres undefined)	-4.3%
Cc1ccc(S(=O)(=O)NCCn2cnc([N+](=O)[O-])n2)cc1	-12.1%
CCc1ccc(NC(=O)CCn2c(=O)c3cccn3c3ccccc32)cc1	27.9%&1.9%
CCCC(=O)Nc1ccc(NC(=O)c2ccco2)c(OC)c1	7.6%
COC(=O)/C(=C/Nc1ccccc1)[N+](=O)[O-]	2.0%
O=C(CCCOc1ccccc1)NCCc1ccccc1	-1.3%

Of the compounds above, 2 have an aryl thioether with sulfur outside any ring.
SMILES	VDR inh
O=C(NCc1ccncc1)c1ccccc1Nc1ccc(SC(F)F)cc1	12.6%
CCn1c(SC)nnc1-c1c[nH]c2ccccc12	-6.7%

Carrying on.
SMILES	VDR inh
CCCCn1c(N)c(N(CC(C)C)C(=O)C2CC(=O)N(c3ccc(C)cc3)C2)c(=O)[nH]c1=O (centres undefined)	3.8%
CN1CCOc2ccc(S(=O)(=O)NCCc3ccc(Cl)cc3)cc21	9.3%
Nc1c(Cl)cc(Cl)cc1C(=O)OCC(=O)N1CCCC1	-9.0%
O=C(O)C1CCCCC1C(=O)Nc1ccc(Cl)cc1Cl (centres undefined)	-4.1%
COC(=O)/C(=C\C(=O)c1ccccc1)Nc1ccc(OC)cc1	6.6%
O=c1[nH]c2ccccc2[n+]([O-])c1-c1ccccc1	11.6%
N/C(=N\NS(=O)(=O)c1ccccc1)c1ccccn1	8.5%
CCOC(=O)CC1COCCN1Cc1cn(C)nc1-c1ccccc1F (centres undefined)	11.9%
NC(=O)C1CCN(c2nnnn2-c2ccccc2)CC1	12.1%
COc1cccc(OC)c1OC(=O)/C=C/c1ccc(C)o1	34.2%[activator]
Cc1nc2ccccc2n1C1CCN(C(=O)Nc2ccccc2)CC1	26.6%
COc1ccc(CC(=O)Nc2ccccc2C(=O)N2CCCC2)cc1	5.2%
CCN(CC)S(=O)(=O)c1ccc(N2CCCCC2)c(NC(=O)C2=COCCO2)c1	-21.1%
CC(=O)Nc1ccc(CN2CCN(Cc3ccc(F)c(F)c3)C(CCO)C2)cc1 (centres undefined)	-3.6%
COc1cc2c(cc1OC)CN(C(=O)NS(=O)(=O)c1ccc(C)cc1)CC2	-17.6%
Nc1nc(-c2cc(Cl)cc(Cl)c2OC(F)F)cs1	3.2%
NC(=O)c1ccccc1OCC(=O)NS(=O)(=O)c1ccc(Cl)cc1	9.0%
CCCCn1c(-c2csc(C(C)C)c2)n[nH]c1=S	-11.1%
COc1ncnc2sc3c(c12)CCCC3	6.2%
COCCN(C(=O)Cc1csc(-c2cccc(Cl)c2)n1)c1c(N)n(Cc2ccccc2)c(=O)[nH]c1=O	-0.5%
CN(C)c1cccc(C(=O)NCc2ccccc2Cl)c1	0.1%
CC1CCCCC1NC(=O)C1CCN(S(=O)(=O)c2cccc3nsnc23)CC1 (centres undefined)	4.2%
O=C(Oc1cccc2c(O)cccc12)c1ccccc1	7.3%
COc1ccc(Cl)cc1NC(=O)CN(C)CC(=O)Nc1ccccc1-c1ccccc1	13.5%
O=C(c1ccncc1)N1N=C2CCCCCC2C1(O)C(F)(F)F (centres undefined)	23.3%
CCOc1ccccc1C(=O)OC(C)C(=O)Nc1ccc(S(=O)(=O)N2CCCC2)cc1 (centres undefined)	-11.5%
O=C(O)CSc1nnc2n(-c3ccccc3)c(=O)c3ccccc3n12	1.7%
CC(C)CNC(=O)CCc1c[nH]c2ccccc12	-7.1%
Cc1cnccc1CN(C)Cc1cn(C)nc1-c1cccc(Cl)c1	17.9%
O=C(Nc1cccc2cccnc12)OCc1ccccc1	-0.3%
COc1ccc(N2CCN(S(=O)(=O)CCNC(=O)CCCc3ccccc3)CC2)cc1	-4.7%
O=C(NC(=S)NC1CCCc2ccccc21)c1ccco1 (centres undefined)	14.4%
CC(O)C1CCC2C3CC[C@H]4CC(O)CCC4(C)C3CC3(OCCO3)C12C (some centres undefined)	1.5%
O=C(/C=C/c1ccc(OCCCF)cc1)NCc1ccc(Cl)cc1	10.5%
CCCCN(CCCN)c1ccc(Br)cn1	-8.7%
COc1ccc(-c2cc(=O)oc3cc(OC(C)C(=O)NCc4ccccn4)ccc23)cc1 (centres undefined)	-19.5%
Cc1ccc(S(=O)(=O)/N=C/c2ccc(N(C)C)cc2)cc1	-21.8%
COc1ccc(C(=O)/C=C/c2cn(CC(O)CN3CCN(C)CC3)c3ccccc23)cc1OC (centres undefined)	-8.8%
Cc1cnc2cc([N+](=O)[O-])ccc2n1	-7.0%

An excerpt; count on the stated rates, not on these rows.
